Assay outcomes deposited in PubChem BioAssay by ICCB-Longwood Screening Facility, Harvard Medical School.
Sa growth inh: S. aureus growth inhibition; S. aureus RN4220 growth, OD600, 20 h, 42 °C; hits give low values; relative growth, % (concentration not given with the values); 170,000 compounds, 0.53% hits;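 active = growth at 42 °C up to 50% and 20 or more points under that at 30 °C, or under 10% at both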;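 note: 300 nL library stock went into each well; scaled to the means of positive and negative controls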
GIV-Gai inh: inhibitors of GIV GBA-motif binding to rat Galpha-i3. P08753. Galpha-i3/FITC-GIV peptide fluorescence polarization, 90 min; hits give low values; scaled: aluminum fluoride 0%, vehicle 100%. percent of control (FP), % (test concentration not listed). 210,000 compounds, 0.42% hits;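 active = replicate mean at 85% of control or lower, very high polarization wells dropped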;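 note: wells of about 15 µL received 100 nL stock; the first replicate is given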
Target sequence (P08753 whole entry, looked up): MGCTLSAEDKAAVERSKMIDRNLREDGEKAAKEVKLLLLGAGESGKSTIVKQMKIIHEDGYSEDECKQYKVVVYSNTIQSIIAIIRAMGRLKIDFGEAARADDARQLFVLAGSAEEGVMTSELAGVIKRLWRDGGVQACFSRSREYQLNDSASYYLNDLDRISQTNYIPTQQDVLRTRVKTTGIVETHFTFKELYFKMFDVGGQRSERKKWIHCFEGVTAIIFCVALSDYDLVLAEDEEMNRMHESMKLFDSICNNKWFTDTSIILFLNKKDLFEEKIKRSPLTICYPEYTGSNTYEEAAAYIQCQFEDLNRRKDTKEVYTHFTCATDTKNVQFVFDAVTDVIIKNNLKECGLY
HCMV UL50-53 inh: inhibitors of HCMV UL50-UL53 nuclear egress complex interaction | HTRF UL50-UL53 interaction, normalized percent inhibition | inhibition, % (concentration not given with the values) | 190,000 compounds, 0.15% hits | AID 1918969;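 active = both replicates at 50% or more, plus weaker picks with an unusually low signal ratio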;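 note: stock transfer was 100 nL into about 20 µL; 0% = negative control wells and 100% = wells with untagged competitor protein; inactives centre near -12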
Sa growth inh second temp: recorded beside Sa growth inh, whose call it bears; relative growth, %; measured here: growth at 30 °C;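 optical density after 20 h as mean of two plates; 100% = untreated growth and lower means inhibition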
Active calls of the source: *; / = no result given; & = joins results of further samples. An unsorted share of the library; about 0.82% have a hit in one of these screens.

SMILES | GIV-Gai inh | Sa growth inh | HCMV UL50-53 inh | Sa growth inh second temp
CN(C)c1sc(C(=O)c2ccccc2)cc1-c1ccccc1 | 102.5 | / | -10.8 | /
O=c1[nH]c2ccc(Cl)cc2c(-c2ccccc2)c1CN1CCCCC1 | 109.3 | 19.6 | / | 1.9
CCOc1ccccc1N/C=C/C(=O)C(C)(C)C | 104.1 | 109.4 | -28.0 | 97.2
COc1ccc(Nc2cc(C(=O)NCc3ccccc3)c3ccccc3n2)cc1OC | 102.1&102.7 | 100.6 | -21.9&27.7 | 90.2
Cc1ccc(C2=NC(CC(C)C)NC(c3ccccc3O)C2)cc1 (stereo not drawn) | 101.0 | 89.3 | / | 85.3
COc1ccc(-n2nnc(C(=O)Nc3ccccc3F)c2N)cc1 | 102.7 | 105.5 | -19.2 | 88.3
O=c1c2ccccc2n2c(-c3ccsc3)nnc2n1CCc1ccccc1 | 97.1 | 76.7 | -24.5 | 78.1
Oc1c(Br)cc(CN2CCOCC2)c2cccnc12 | 108.0 | 76.3 | -28.6 | 50.7
CC(=O)NCCn1c(SCc2cc(F)ccc2F)nc2ccccc2c1=O | 104.2 | 108.2 | -20.7 | 93.0
CC(C)(C)NC(=O)NC(=O)CN1CCC(Cc2ccccc2)CC1 | / | 103.8 | 12.0 | 90.4
COc1ccc(C(C(=O)NC2CCCC2)N(Cc2ccco2)C(=O)c2ccco2)cc1 (stereo not drawn) | 97.5 | 108.2 | -1.1 | 91.8
CCOC(=O)C1=C(C)N=c2s/c(=C\c3cc(Br)c(O)c(OC)c3)c(=O)n2C1c1ccccc1 (stereo not drawn) | 132.1 | / | -19.0 | /
Nc1c(-c2nnnn2-c2ccccc2)cnc2ccccc12 | 107.5 | 104.4 | 3.3 | 102.1
O=C1c2ccc(F)cc2C(=O)N1CCO | 100.8&98.0 | 77.6 | -56.5&-23.9 | 86.9
COc1ccc(-c2noc(CCn3c(=O)[nH]c4ccccc4c3=O)n2)cc1OC | 98.7 | / | -21.6 | /
Cc1nnc(C)n1/N=C/C=C/c1ccccc1 | 104.9 | 62.8 | -34.3 | 90.2
O=C(Nc1cccc(-c2nnco2)c1)c1cccs1 | 96.3 | 82.4 | -13.6 | 69.1
COC(=O)c1ccccc1NC(=O)Cc1c(C(=O)O)[nH]c2ccccc12 | 106.8 | 104.1 | -5.9 | 88.4
O=C(Nc1cccc(-c2nc(-c3ccccc3)no2)c1)c1ccccc1F | 104.7 | / | 0.0 | /
CC(CC(=O)OCc1ncc(-c2ccccc2)o1)c1ccccc1 (stereo not drawn) | / | 97.1 | -1.3 | 100.7
CCOC(=O)C1=C(N)OC2=C(C(=O)CC(c3ccccc3)C2)C1c1cccc(OC)c1 (stereo not drawn) | 102.2 | / | 1.4 | /
O=C(Nc1cccc(Cl)c1)c1cnc2ccccn2c1=O | 104.6 | / | -0.5 | /
O=C(Oc1ccc(N2C(=O)C3C4C=CC(C4)C3C2=O)cc1)c1ccc([N+](=O)[O-])cc1 (stereo not drawn) | 104.7 | / | -46.8 | /
COc1ccccc1CNC(=O)CS(=O)(=O)c1cccc2nsnc12 | 104.5 | 79.5 | / | 84.0

A different layout for two compounds above.
COC(=O)c1ccccc1NC(=O)Cc1c(C(=O)O)[nH]c2ccccc12
  GIV-Gai inh: 106.8
  Sa growth inh: 104.1
  HCMV UL50-53 inh: -5.9
  Sa growth inh second temp: 88.4

O=C(Oc1ccc(N2C(=O)C3C4C=CC(C4)C3C2=O)cc1)c1ccc([N+](=O)[O-])cc1 (stereo not drawn)
  GIV-Gai inh: 104.7
  Sa growth inh: /
  HCMV UL50-53 inh: -46.8
  Sa growth inh second temp: /

Continuation:
SMILES | GIV-Gai inh | Sa growth inh | HCMV UL50-53 inh | Sa growth inh second temp
COc1ccc(CCNC(=O)C2CCCN(S(=O)(=O)c3cn(C)cn3)C2)cc1OC (stereo not drawn) | 107.1 | / | -26.6 | /
NC(=S)N/N=C/c1cccc(C(F)(F)F)c1 | 104.8 | 95.5 | -22.0 | 81.4
COc1ccc(CNC(=O)c2cnc(N3CCCC3)nc2C)c(OC)c1 | 102.1 | 90.0 | / | 91.9
O=C(Nc1cccc(C(F)(F)F)c1)C1CCC(Cn2c(=O)[nH]c3ccsc3c2=O)CC1 (stereo not drawn) | 104.3 | 103.7 | / | 102.1
CCCCOc1ccc(CN(C)C)cc1CN(C)C | 105.4 | 94.9 | -6.9 | 93.0
Cc1cc2c3c([nH]c2cc1S(=O)(=O)NCCc1ccc(S(N)(=O)=O)cc1)CC(C)(C)CC3=O | 100.1 | / | -33.2 | /
O=C(CNc1cc(Cl)ccc1Cl)N1CCCC1 | / | 90.3 | -20.9 | 88.9
COCCCNC(=O)CN1C(=O)COc2ccc(S(=O)(=O)N3CCCC3)cc21 | 107.1 | 104.2 | -23.1 | 96.0
CCC(=O)N(CCC1(c2ccccc2)CCOC(C)(C)C1)Cc1ccccc1F (stereo not drawn) | 100.3 | 109.5 | / | 85.0
O=c1[nH]c2ccccc2nc1-c1c[nH]c2ccccc12 | 102.6 | 101.9 | -17.1 | 89.9
COc1ccc(Nc2cc(C(=O)NCCCN(C)c3ccccc3)c3ccccc3n2)c(OC)c1 | 91.7 | 113.6 | / | 87.0
CC(=NC1CCCCC1)c1sc2ccccc2c1O | 188.8 | 114.6 | -52.2&-48.3 | 93.9
Nc1ccccc1OCCOc1ccccc1N | / | 93.5 | -21.1 | 87.6
CC1=NCCNC(C)=C1N1CCOCC1 | 105.9 | 112.7 | 7.5 | 95.5
CCOC(=O)c1cnn2c1[nH]c(=O)c1ccccc12 | 99.1 | 103.8 | -1.6 | 91.3
Cc1nc(C(F)(F)F)ccc1-c1nnc(SCc2cc(F)cc(F)c2)o1 | 111.2 | 100.0 | / | 100.8
Cn1c(=O)c2ccccc2n2c(=S)sc(-c3ccccc3)c12 | 105.6 | 91.9 | / | 89.2
C/C(CC(C)C)=N\Nc1ccc(Cl)c(C(=O)O)c1 | / | 91.6 | -39.0 | 90.3
O=C1c2ccncc2C(=O)N1c1ccccc1F | 103.0 | / | -17.0 | /
CC(C)C(=O)NCc1ccc(Cl)cc1Cl | 101.9 | 99.2 | 5.9 | 82.8
CCOc1ccccc1CNC(=O)c1nc(-c2ccc(Cl)cc2)n2c1CCCCC2 | 104.1 | 110.7 | / | 87.5
CCc1cccc(NC(c2nnc(-c3ccccc3)o2)c2ccc(F)cc2Cl)c1 (stereo not drawn) | 97.7 | 77.7 | / | 84.4
CC(=O)N(CCN(C)C)c1nc2cc3c(cc2s1)OCO3 | 100.1 | 85.1 | -1.0 | 88.0
COC(=O)c1nsc(Cl)c1Cl | / | 98.6 | -9.2 | 91.3
COc1ccc(S(=O)(=O)n2nc(C)c(S(=O)(=O)N3CCCCC3)c2C)cc1 | 105.1 | 101.9 | / | 90.3
Cc1ccc(C(C(=O)NC2CCCC2)N(C(=O)Cn2nnc3ccccc32)c2cnc3ccccc3c2)o1 (stereo not drawn) | 109.6 | 100.2 | 3.7 | 102.3
COC(=O)CCN(c1ccccc1)S(=O)(=O)c1cc(-c2cc(C)no2)ccc1OC | 99.5 | 99.7 | / | 87.2
Cn1c(=NC(=O)CSc2nnc(-c3ccccc3)o2)sc2ccccc21 | / | 54.6 | -15.3 | 0.8
Cc1nnc2c3cc(-c4ccccc4)sc3ncn12 | / | 95.5 | -55.6 | 94.3
CN(C)c1ccc(/C=N/OC(=O)NC2CCCCC2)cc1 | 106.1 | 92.5 | -25.2 | 62.4
C/C(=C/C(=O)O)C(=O)Nc1nc(-c2cccs2)cs1 | 107.8 | 103.5 | -35.5 | 58.7
COCCNc1ncnc2onc(-c3cccc(Cl)c3)c12 | 101.6 | / | -14.9 | /
CC(C)(C)C(=O)Nc1ccc(-c2csnn2)cc1 | 95.1 | 102.5 | -2.5 | 92.2
COc1ccccc1CCNC(=O)C(=O)NCC(c1ccco1)S(=O)(=O)c1cccs1 (stereo not drawn) | 97.2 | 103.4 | / | 84.1
O=c1cc(O)c2sc3nc(-c4ccco4)cc(C(F)(F)F)c3c2[nH]1 | 71.9* | 100.7 | -64.0 | 80.3
NS(=O)(=O)c1ccc(NC(=O)CN2C(=O)SC(=C3CCCCC3)C2=O)cc1 | / | 68.7 | -18.5 | 83.0

Single records (already shown):
Cn1c(=NC(=O)CSc2nnc(-c3ccccc3)o2)sc2ccccc21 in the list: GIV-Gai inh = /; Sa growth inh = 54.6; HCMV UL50-53 inh = -15.3; Sa growth inh second temp = 0.8
COc1ccccc1CCNC(=O)C(=O)NCC(c1ccco1)S(=O)(=O)c1cccs1 (stereo not drawn) in the list: GIV-Gai inh = 97.2; Sa growth inh = 103.4; HCMV UL50-53 inh = /; Sa growth inh second temp = 84.1
Cc1nnc2c3cc(-c4ccccc4)sc3ncn12 in the list: GIV-Gai inh = /; Sa growth inh = 95.5; HCMV UL50-53 inh = -55.6; Sa growth inh second temp = 94.3

Further entries:
SMILES | GIV-Gai inh | Sa growth inh | HCMV UL50-53 inh | Sa growth inh second temp
Cc1ccc(-c2ccc(=O)n(C(C)C(=O)Nc3ccccc3Cl)n2)cc1C (stereo not drawn) | 103.8 | 94.2 | -32.8 | 84.7
Cc1ccc(-c2onc(C)c2C)cc1S(=O)(=O)CCC(=O)N1CCc2ccccc2C1 | 109.1 | / | -10.6 | /
CSC(=S)n1c(C)nc2ccccc21 | / | 70.8 | -21.9 | 81.6
Cc1ccccc1-c1nc(CN2CCC(C(=O)NC3CCCCC3)CC2)c(C)o1 | 104.3 | 95.0 | -15.4 | 84.9
COc1ccc(N(CC(=O)NCCc2ccccc2)S(=O)(=O)c2ccc(OC)c(OC)c2)cc1 | 106.8 | 99.2 | -26.2 | 90.5
CC1CCC2(CC1)NC(=O)N(CN(C)Cc1cccs1)C2=O (stereo not drawn) | / | 87.2 | -29.2 | 102.8
COCc1c(C(=O)NCc2cccs2)oc2ccccc12 | / | 94.0 | -21.8 | 90.9
CC1(C)Cc2ccccc2/C(=C/C(=O)N2CCOCC2)N1 | 102.3 | 81.6 | -31.9 | 84.2
CN1/C(=C\C=Nc2ccccc2N)C(C)(C)c2ccccc21 | / | 68.5 | -62.7 | 24.4
O=c1c(CCc2ccccc2)nnc2c3ccccc3ncn12 | / | 87.4 | -4.2 | 95.8
O=S(=O)(c1ccc(Cl)cc1)n1cc2c(n1)CCOC2 | 100.9 | 104.1 | 3.3 | 113.5
CCN1CCc2c(sc(N)c2C#N)C1 | / | 84.4 | -36.4 | 80.7
COc1cc(C(=O)N[C@H](C(=O)O)C(C)C)cc(OC)c1OC | / | 104.7 | -26.1 | 91.3
FC(F)(F)c1cccnc1SCc1ccc(Cl)cc1 | 97.6 | 98.5 | -34.0 | 92.0
Cc1ccc2c(c1)CCCN2CC(=O)N(c1ccccc1)C1CCCCC1 | 111.4 | 108.8 | -10.0 | 87.2
O=C(Nc1ccccc1C(=O)OC1CCCCC1=O)c1ccco1 (stereo not drawn) | / | 88.4 | -34.8 | 90.0
COc1cc(-c2nc(-c3ccsc3)c(-c3ccccc3)[nH]2)cc(OC)c1OC | 104.8 | 86.4 | -4.0 | 87.5
CCCN(CCC)C(=O)Cn1c(=O)n(CCC(=O)NCc2ccco2)c(=O)c2sccc21 | 93.9 | 101.6 | -11.2 | 93.7
CC(C)(C)C(=O)NC(Cc1c[nH]c2ccccc12)C(=O)O (stereo not drawn) | 103.7 | 91.9 | 8.7 | 105.9
COc1ccccc1CNC(=O)c1ccc2c(c1)sc1nc(-c3ccc(F)cc3)cn12 | 106.6 | 117.4 | / | 70.2
CCOC(=O)CC1=C(C(=O)OCC)C(c2ccccc2F)C(C#N)=C(N)O1 (stereo not drawn) | 105.6 | / | -4.0 | /
C=CCSc1nnc2c(n1)OC=Nc1ccccc1-2 | 94.4 | 93.6 | -50.1 | 79.0
CCOC(=O)C1=C(c2ccccc2)OC(N)=C(C#N)C1c1ccc(F)cc1 (stereo not drawn) | / | 97.6 | 0.2 | 78.2
O=C(CSc1nc2ccccc2[nH]1)C1CC1 | / | 104.9 | -5.4 | 82.8
COc1ccc(C2C3=C(CC(c4ccc(O)c(OC)c4)CC3=O)Nc3onc(C)c32)c(OC)c1 (stereo not drawn) | 105.8 | / | -27.6 | /
N#Cc1ccccc1S(=O)(=O)N1CCC(Oc2ccc(-n3cnnn3)cc2)CC1 | 98.8 | 101.6 | -19.0 | 73.1
Cc1ncc(CO)c2cc(-c3nnc(NCc4ccco4)s3)c(=O)oc12 | 115.4 | 113.3 | -19.6 | 92.0
NS(=O)(=O)c1ccc(NC(=O)CSc2ccc3ccccc3n2)cc1 | 103.0 | 123.1 | / | 89.3
O=C(O)CCn1c(SCc2cccc3ccccc23)nc2ccccc21 | 108.3 | / | -2.1 | /
CN(C)S(=O)(=O)c1ccc2c(c1)ncn2CCC(=O)NC1CCN(Cc2ccccc2)CC1 | 106.5 | / | -32.9 | /
COc1ccc(C)cc1NC(=O)c1nnn(Cc2cccc(Br)c2)c1N | 100.4 | 80.5 | -7.5 | 93.6
c1ccc(CCN2CN=C(Nc3nc4ccccc4o3)NC2)cc1 | 103.5 | 98.1 | -16.8 | 86.7
